Screening data deposited in PubChem BioAssay by National Center for Advancing Translational Sciences (NCATS).
Resorufin autofl: qHTS Assay for Spectroscopic Profiling in Resorufin Spectral Region; hit rate 0.04% among 59,000; AID 588, 2007; Compound fluorescence, resorufin region 547/598 nm, buffer; hits give high values; max dye-equivalent concentration, M; active = above 10 nM dye equivalent; inconclusive = 1 to 10 nM; inactive = 1 nM or less; a few of its hits are not listed in these tables; note: highest value over a series up to 38 µM
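Compounds in 100 mM Tris buffer, pH 8.0, incubated 15 min at room temperature, then read with 547 nm excitation and 598 nm emission filters. Fluorescence was converted to dye-equivalent concentration using an on-plate six-point resorufin standard curve.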
TSHR ag: qHTS Assay for Agonists of the Thyroid Stimulating Hormone Receptor; Thyrotropin receptor (Homo sapiens), P16473; HEK293-CNG-TSHR cells (CNG channel as cAMP sensor), membrane potential dye, cAMP; Potency, µM (doses to about 57.1 µM), inactives show at the highest dose activation, hits mostly activators; hit rate 0.48% among 73,000; active = well fitted activation curve of enough size with the parental cells flat; inconclusive = any curve in the parental cells; inactive = parental cells flat and receptor cells flat or falling; note: potency is the fitted concentration of half-maximal effect; % of control where 0% means no effect; weak receptor curves with flat parental cells got no call and are not listed
Target sequence (P16473 whole entry, looked up): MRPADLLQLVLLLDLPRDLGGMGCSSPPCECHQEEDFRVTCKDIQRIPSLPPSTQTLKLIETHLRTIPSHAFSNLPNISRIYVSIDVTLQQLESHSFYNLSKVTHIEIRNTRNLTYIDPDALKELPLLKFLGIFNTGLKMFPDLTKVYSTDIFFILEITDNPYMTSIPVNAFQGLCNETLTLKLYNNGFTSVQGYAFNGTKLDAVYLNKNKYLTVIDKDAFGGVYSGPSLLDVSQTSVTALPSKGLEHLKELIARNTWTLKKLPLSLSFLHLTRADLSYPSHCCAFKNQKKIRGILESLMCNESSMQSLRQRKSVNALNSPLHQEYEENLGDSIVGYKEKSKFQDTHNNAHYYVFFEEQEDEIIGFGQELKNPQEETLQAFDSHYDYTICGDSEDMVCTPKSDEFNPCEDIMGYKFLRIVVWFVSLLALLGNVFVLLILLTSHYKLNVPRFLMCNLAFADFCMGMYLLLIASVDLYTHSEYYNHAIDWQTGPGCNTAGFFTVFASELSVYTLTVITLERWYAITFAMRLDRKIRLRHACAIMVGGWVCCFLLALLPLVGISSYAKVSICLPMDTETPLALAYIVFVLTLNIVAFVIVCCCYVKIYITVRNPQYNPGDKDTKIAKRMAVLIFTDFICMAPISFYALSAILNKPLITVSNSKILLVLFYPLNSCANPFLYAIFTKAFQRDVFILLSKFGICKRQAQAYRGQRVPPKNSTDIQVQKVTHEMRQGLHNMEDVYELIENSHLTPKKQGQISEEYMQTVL
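HEK 293 cells stably expressing TSHR and a cAMP-gated CNG channel; parental CNG-only cells as counterscreen. Cells preloaded 60 min with membrane potential dye plus 100 uM RO 20-1724, then compound 30 min; fluorescence read at 590 nm.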
AID923: qHTS Assay for Allosteric/Competitive Inhibitors of Caspase-1: Spectroscopic Profiling in AFC Spectral Region; compound fluorescence, AFC spectral region (405/520 nm); almost no hit is shown here; Potency, µM (titrated, usually from 57.5 µM), for inactives: top-dose fluorescence increase, hits mostly activators; hit rate 1.1% among 75,000; active = well fitted activation curve with a large enough effect; inconclusive = small, poorly fitted or top-dose-only effect;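 note: potency is the fitted concentration of half-maximal effect; 0% is about no effect; scaled to a free AFC standard on each plate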
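Compound autofluorescence profiled at 405 nm ex/520 nm em during kinetic caspase 1 run (50 nM enzyme, 5 uM Ac-WEHD-AFC, HEPES pH 7.5, 10 mM DTT). Titration up to 57 uM; baseline from regression intercept, normalized to AFC standard curve.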
A488 fluor: qHTS Assay for Spectroscopic Profiling in A488 Spectral Region. compound autofluorescence, A488 spectral region, dye equivalency; hits give high values. AID 591, 2007. hit rate 0.1% among 59,000. max dye equivalency, M; active = above 10 nM dye equivalent; inconclusive = 1 to 10 nM; inactive = 1 nM or less; about half of its hits are not listed in these tables;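 note: highest value over a series up to 38 µM; compound alone in buffer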
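Autofluorescence read at ex 480/em 540 nm after 15 min RT in 100 mM Tris pH 8.0; compound signal normalized to A488 standard series on each plate, reported as dye-equivalent concentration at each test concentration.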
A647 autofl: qHTS Assay for Spectroscopic Profiling in A647 Spectral Region. 59,000 tested, under 10 active. max dye-equivalent concentration, M. Compound fluorescence, A647 channel (570/671 nm), Tris buffer; active means above 1 µM dye equivalent; inconclusive means 0.1 to 1 µM; inactive means 0.1 µM or less;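 note: values scaled relative to a standard on each plate; highest value over a series up to 38 µM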
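Spectral profiling of library compounds in pH 8.0 Tris: 15 min room-temperature incubation, single ex/em pair (570/671 nm), response normalized to Alexa 647 equivalents.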
The depositor's hits bear a star; i = inactive; ? = inconclusive; . = no result given; & = joins results of further samples; [ ] = dose if it differs, or a comment. The list is partial (hit frequency here may not be typical).

Values run as follows: A647 autofl, TSHR ag, AID923, A488 fluor, Resorufin autofl
- O=C(NC1CC2CCC(C1)N2C(=O)NC1CCCCC1)NC12CC3CC(CC(C3)C1)C2 (configuration not stated)
  2.2e-08, -5%, 1.3%, i, i
- O=C(COc1ccc(-c2nnco2)cc1)NC1CCCc2ccccc21 (configuration not stated)
  1.7e-09, 14%, -1.9%, i, i
- CCOCCCNC(=O)c1ccc(CS(=O)(=O)Cc2ccc(C)cc2)o1
  4e-08, -2%, -0.5%, i, i
- Cc1cc(C)nc(SCCS(=O)(=O)Cc2ccccc2)n1
  1e-09, 11%, -1.9%, i, i
- CCCCCCCC#Cc1ccccc1/C=N/S(=O)c1ccc(C)cc1 (configuration not stated)
  ., 1%[11.4 µM], 2.2%[11.5 µM], ., .
- CCc1nnc(NC(=O)c2ccc(OC)cc2OC)s1
  ., ?, 4.4%, ., .
- CCc1ccc(NC(=O)CSc2nnc(Cc3cccn3C)n2-c2ccc(OC)cc2)cc1
  ., 12%, 0.9%, ., .
- CCOCc1nnc(NC(=O)COC)s1
  1e-09, -2%, 0.0%, i, i
- CN1CCN(CN2C(=O)C3C4C=CC(C3C2=O)C2C3C(=O)N(CN5CCN(C)CC5)C(=O)C3C42)CC1 (configuration not stated)
  1.7e-08, 9%[11.4 µM], 0.8%[11.5 µM], i, i
- Cc1nc(C)c(C(=O)Nc2ccc(C)c(F)c2)o1
  2.8e-08, 10%, 1.1%, i, i
- COc1ccc(OCCOCC(O)CN2CCOCC2)cc1 (configuration not stated)
  6.4e-09, -3%, -0.4%, i, i
- CN(C)CCNCCN
  1e-09, -1%[11.4 µM], 1.3%[11.5 µM], i, i
- COc1ccc(CN(C)C2CCCCC2)cc1
  ., 21%, 1.6%, ., .
- CCOC(=O)N1CCC(NC(=O)c2ccc(OC)c(CN3CC(=O)N4CCCC4C3=O)c2)CC1 (configuration not stated)
  3.4e-09, 3%, 0.5%, i, i
- Cn1c(SCC(=O)Nc2ccc(N3CCOCC3)cc2)nnc1-c1ccccc1
  3.2e-08, -3%, 2.9%, i, i
- Cc1ccc(C(=O)CC2(O)C(=O)N(Cc3ccccc3Cl)c3ccccc32)o1 (configuration not stated)
  3.1e-08, ?, -2.0%, i, i
- CCN(CC)CCOC(=O)C1(c2ccc(OC)c(OC)c2)CCCC1
  2.1e-09, ., ., i, i
- CCOC(=O)c1sc(=NC(=O)c2ccc(S(=O)(=O)N3CC(C)OC(C)C3)cc2)n(C)c1C (configuration not stated)
  1.2e-09, ., 1.7%, i, i
- CNC(=O)CN(Cc1ccccc1)S(=O)(=O)c1ccccc1
  5.2e-09, 10%, 1.7%, i, i
- Nn1c(SCc2cn3ccsc3n2)nnc1-c1ccncc1
  2.3e-08, 4%, -0.1%, i, i
- c1coc(-c2nnc(SCc3nc4ccccc4[nH]3)o2)c1
  1.5e-08, 1%, 5.0%, i, i
- O=C(CSc1nc(-c2cccs2)cc(C(F)(F)F)n1)NCCCn1ccnc1
  1e-09, 3%, 3.0%, i, i
- COC(=O)N(/C=C/c1ccc(OC)cc1)CCc1ccc(OC)c(OC)c1
  ., 12%[11.4 µM], -1.6%[11.5 µM], ., .
- CCOC(=O)Cn1c(C)nc2ccccc21
  ., -11%, 3.9%, ., .
- Cc1cc(NC(=O)CSc2nnc(-c3ccc(S(=O)(=O)N4CCCC4)cc3)n2C)no1
  1e-09, -7%, -2.4%, i, i
- Cc1cc(N2CCCCC2)nc(SCc2ccc(C#N)cc2)n1
  2.9e-08, ?, 0.3%, i, i
- NC(=O)N/N=C1\CC[C@H](O)C[C@@H]1CC(=O)O
  1e-09, -3%[11.4 µM], 2.8%[11.5 µM], i, i
- COc1ccc(NC(=O)Cn2nnc(-c3ccccc3N)n2)cc1OC
  1.4e-08, -4%, 0.0%, i, i
- NC(=O)COC(=O)CCCc1c[nH]c2ccccc12
  4.4e-09, -1%, -1.4%, i, i
- CCc1ccc(NC2=NCC(=O)N2Cc2ccc3c(c2)OCO3)cc1
  2.4e-09, 1%, 0.7%, i, i

Part of the list above, with bars between the fields.
SMILES | A647 autofl | TSHR ag | AID923 | A488 fluor | Resorufin autofl
CCOC(=O)Cn1c(C)nc2ccccc21 | . | -11% | 3.9% | . | .
COc1ccc(NC(=O)Cn2nnc(-c3ccccc3N)n2)cc1OC | 1.4e-08 | -4% | 0.0% | i | i
c1coc(-c2nnc(SCc3nc4ccccc4[nH]3)o2)c1 | 1.5e-08 | 1% | 5.0% | i | i
Cc1ccc(C(=O)CC2(O)C(=O)N(Cc3ccccc3Cl)c3ccccc32)o1 (configuration not stated) | 3.1e-08 | ? | -2.0% | i | i

New compounds follow.
Values run as follows: A647 autofl, TSHR ag, AID923, A488 fluor, Resorufin autofl
- O=c1c(-c2cccc(F)c2)nc2cncnc2n1Cc1ccc(F)cc1
  1e-09, -19%, 4.3%, i, i
- CCOC(=O)N1CCC(NC(=O)c2cc3ccccn3n2)CC1
  ., 1%, -3.4%, ., .
- CS(=O)(=O)N1CCC2(CC1)CN(Cc1nccs1)C2
  2.9e-09, -8%, 0.3%, i, i
- O=C(NCCc1cn2ccccc2n1)c1ccc(Br)o1
  ., 4%, -2.1%, ., .
- O=C(CSc1nc2c(c(=O)n1-c1ccc(F)cc1)SCC2)NCC1CCCO1 (configuration not stated)
  1.1e-09, 11%[11.4 µM], -0.7%, i, i
- COc1ccccc1N(CC(=O)NC1CCCCC1)S(C)(=O)=O
  ., 7%, -0.2%, ., .
- CCOCCCNC(=O)C(NC(=O)c1ccccn1)c1ccc(C)cc1 (configuration not stated)
  2.1e-08, -3%, -0.3%, i, i
- COC(=O)[C@@]1(Cc2ccc(OC)cc2)[C@@H]2[C@@H](CC(=O)[C@H]2CC(=O)C(=O)N(C)C)CN1C(=O)c1ccccc1
  ., 9%, 1.5%, ., .
- c1ccc2c(N3CCOCC3)nc(-c3ccoc3)nc2c1
  3.8e-08, ., 0.0%, i, i
- CCn1c(Sc2nc(C)nc3scc(-c4cccs4)c23)n[nH]c1=O
  1.4e-09, 5%, -0.7%, i, i
- O=C(NCC1CCCO1)c1c(O)c2cccc3c2n(c1=O)CC3 (configuration not stated)
  4.5e-09, 4%, -1.1%, i, i
- CCC(=O)Nc1sc(C(=O)N2CCCCC2)c(C)c1C#N
  1.5e-08, 3%, 0.4%, i, i
- OC(CN1c2ccccc2Sc2ccccc21)Cn1nnc2ccccc21 (configuration not stated)
  ., -8%, 2.6%, ., .
- COC(=O)c1cc(OC)c(OC)cc1NC(=O)c1oc2ccccc2c1C
  1e-09, 8%, 0.4%, i, i
- Cc1[nH]nc2c1C(c1ccc(F)cc1)C1=C(CC(C)(C)CC1=O)N2 (configuration not stated)
  4.7e-08, 30%, 1.3%, i, i
- CCCNC(=O)NC(C(=O)OC)C12CC3CC(CC(C3)C1)C2 (configuration not stated)
  4.8e-08, 9%, -1.2%, i, i
- COc1cc(NC(=O)NCc2ccncc2)cc(OC)c1OC
  4.6e-09, -1%, -0.1%, i, i
- Fc1cnc(N2CCOCC2)nc1N1CCc2ccccc21
  1e-09, ?, -1.4%, i, i
- Cc1ccc(S(=O)(=O)NCc2ccc(C(=O)NCCCN3CCN(C)CC3)cc2)cc1
  7.4e-09, 0%, 0.2%, i, i
- CSc1ccc(CN(C)CC(=O)NC(=O)NC(C)(C)C)cc1
  1e-09, ?, 0.4%, i, i
- Nc1nncn1C(=O)CCCN1C(=O)c2ccccc2C1=O
  7.4e-09, 7%, 0.8%, i, i
- CNC[C@H](O)[C@H](O)[C@H](O)[C@H](O)CO
  3.1e-09, -1%[25.6 µM], 0.4%[25.7 µM], i, i
- O=S(=O)(Nc1ccn(-c2ccccc2)n1)c1ccc(Br)cc1
  ., ?, 4.1%, ., .
- O=C(O)C1=CCCNC1
  1.8e-08, ?, 2.6%&-1.5%&0.4%, i, i
- COc1ccc(C2C(C(=O)Nc3cccc(C)n3)c3ccccc3C(=O)N2C)cc1OC (configuration not stated)
  1.3e-09, 1%, 0.4%, i, i
- CSc1nc2sc3c(c2c(=O)[nH]1)CCC(C)C3 (configuration not stated)
  6.8e-09, ., ., i, i
- O=C(O)c1ccc(Cl)c2c1C1C=CCC1C(c1ccccn1)N2 (configuration not stated)
  ., -7%, 5.5%, ., .
- Cn1c(SCC(N)=O)nnc1-c1ccccc1
  4.8e-08, 2%, 0.9%, i, i
- Cc1ccc(C)c(S(=O)(=O)Nc2ccccc2C(=O)Nc2cc(C)on2)c1
  1e-09, 9%, -0.6%, i, i
- CCc1cccc(NS(=O)(=O)c2c(C)n[nH]c2C)c1
  1e-09, -3%, 0.6%, i, i
- CCn1c(C(O)c2ccccc2)nc2ccccc21 (configuration not stated)
  ., 11%, 0.0%, ., .
- COCCCNC(=O)C1CC(=O)N(c2ccc(C)cc2)C1 (configuration not stated)
  4.1e-08, -3%, 0.5%, i, i
- O=C(NC1CCCCC1)C1CC(=O)N(c2ccc(Cl)cc2)C1 (configuration not stated)
  ., -2%, -0.6%, ., .
- Cc1ccc(-c2cc(C(=O)NCc3cccs3)no2)cc1
  1e-09, 5%, -0.8%, i, i
- Cc1c(C(=O)N2CCCc3ccccc32)oc2ccc(S(=O)(=O)N3CCOCC3)cc12
  3e-08, 23%, 2.1%, i, i
- O=C(COC(=O)CCC(=O)c1ccc(Cl)cc1)NCC1CCCO1 (configuration not stated)
  1e-09, 5%, 0.7%, i, i
- Cc1ccc(-c2nc(CSCC(=O)N3CCN(C(=O)c4ccco4)CC3)c(C)o2)cc1
  ., -3%, -0.7%, ., .
- CCCOc1ccc(CC(CC(=O)O)(C(=O)O)C(=O)O)cc1
  ., -7%, -2.0%, ., .
- O=C(NCc1ccncc1)c1cccc(F)c1
  3.2e-09, 4%, -1.4%, i, i
- CN(Cc1ccccc1)C(=O)c1ccc2c(c1)OCCO2
  ., ?, -1.7%, ., .
- O=C(CNC(=O)c1cccs1)NCCN1CCN(c2ccccc2F)CC1
  2.9e-08, 14%, -1.2%, i, i
- COc1ccc(N2C(=O)c3cccc4cccc(c34)C2=O)nn1
  1.6e-08, -11%, 2.9%, i, i
- O=C(CN(C(=O)CNS(=O)(=O)c1ccccc1)C1CCCC1)NCc1ccco1
  1e-09, 4%, 0.2%, i, i
- O=C(O)c1ccc(CNCc2ccccc2)cc1
  2.4e-08, 6%[11.4 µM], 0.0%[11.5 µM], i, i
- C=C(C)CN=c1scc(C)n1/N=C/c1ccco1
  5.2e-09, 15%, 3.8%, i, i
- CC(C)CN(C(=O)COC(=O)c1cc2ccccc2oc1=O)C1CCS(=O)(=O)C1 (configuration not stated)
  1e-09, ?, -1.5%, i, i
- O=C(O)c1cc(S(=O)(=O)N2CCCC2)ccc1Br
  ., -1%[11.4 µM], -1.3%, ., .
- O=C(c1ccc2ccccc2c1)N1CCN(c2ccccc2)CC1
  1e-09, ., 0.1%, i, i
- COc1cccc(OCc2nnc(SCC(=O)OC3CCCCC3)n2C)c1
  3.1e-09, ?, -1.0%, i, i
- Cc1ccccc1NC(=O)CSc1nnnn1C
  2.2e-08, 2%, -0.1%, i, i
- Cc1nc(Sc2nnnn2-c2ccccc2)c(C#N)c(C)c1C
  ., 13%, -0.1%, ., .
- O=C(CCN1C(=O)C2CC=C(Cl)CC2C1=O)NCc1ccco1 (configuration not stated)
  4.4e-08, 0%, 0.7%, i, i
- Clc1ccc(CSc2ncccn2)cc1
  2.8e-08, 5%, 1.3%, i, i
- c1ccc(C(Cc2nc(-c3ccccn3)no2)c2ccccc2)cc1
  ., ?, 1.4%, ., .
